Calb FLC: C. albicans growth inhibition with fluconazole, primary screen, CaCi-2 strain, Alamar Blue fluorescence | 300,000 compounds, 0.57% hits | C. albicans CaCi-2 (fluconazole-resistant clinical isolate) + fluconazole, 48 h | growth inhibition, % (concentration not given with the values) | AID 1979, 2009;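 active means most replicates above 75%; inconclusive means exactly half above 75%; inactive means most below 75%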;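 further: all wells also contain fluconazole at 8 µg/ml as a sub-toxic cotreatment; 0% = median of DMSO wells and 100% = median of geldanamycin control wells; wells of about 8 µL received 7.5 nL stock; the first replicate is given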
Ecoli rRNA inh: reduced GFP signal of wild-type E. coli, primary screen, bacterial rRNA inhibitor project, GFP/RFP fluorescence, OD600, single point. E. coli WT GFP vs humanized-ribosome RFP mutants, 24 h; stronger effect = lower value; DMSO median 0, no signal -100. GFP signal change (wild-type ribosome), % (concentration not given with the values). 350,000 compounds, 1.6% hits;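 active means significant combined selectivity score with lowered wild-type GFP, culture density cut under 30%, mutant RFP and density less affected; inactive means any of these conditions unmet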; further: one replicate is shown; some compounds called inactive have numbers as strong as hits
Bfl-1 A1 inh: caspase 3/7 activation in MEF A1-2A-BIM cells, primary screen, A1 inhibitor project, cell-based, luminescence, HTS. 330,000 compounds, 0.066% hits. caspase activation, % (concentration not given with the values). Caspase-Glo 3/7 luminescence, 3 h; percent of clofoctol response, vehicle zero. AID 2462, 2010;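 active means over half of replicate activation scores above 10%, or exactly half above 10 with the replicate mean above 10; inconclusive means replicate mean below 10 yet half the replicates above 10; inactive means over half of replicates below 10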;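 further: wells of about 30 µL received 50 nL stock; many hits fall short of the cut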
Beta cell apopt: inhibitors of cytokine-induced beta cell apoptosis, primary screen, luminescence; INS-1E cytokine-induced death, ATP luminescence, 48 h; percent of positive-control rescue, neutral wells zero; protection from apoptosis, % (no concentration beside the values); 300,000 compounds, 0.8% hits;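 active means all replicates at 75% or more, or half of them and the mean; inconclusive means half reach 75% but not the mean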;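 further: 0% = cytokine-treated negative control wells and 100% = positive control rescue; higher means more ATP so stronger rescue from cytokine killing; wells of about 40 µL received 100 nL stock; the first replicate is given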
RanGTP-Impb inh: inhibitors of RanGTP-importin-beta interaction, primary screen, biochemical, FRET, CFP-Ran, YFP-importin-beta, homogeneous; Ran GTPase (GTP-bound) - importin-beta complex; inhibition, % (test concentration not listed); 300,000 compounds, 1.1% hits; cell-free CFP-Ran/YFP-importin-beta FRET ratio;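 active means most replicates above 15%; inconclusive means exactly half above 15%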;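 further: 0% = DMSO wells and 100% = Ran loaded with GDP instead of GTP; wells of about 40 µL received 100 nL stock; the first replicate is given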
Vif A3G: inhibitors of Vif binding to APOBEC3G peptide, primary screen, biochemical, TR-FRET, GST-Vif 1-94, biotin-A3G peptide, dose response retest (AID 1117319); Virion infectivity factor (Human immunodeficiency virus type 1 group M subtype B (isolate …; TR-FRET GST-Vif / biotin-A3G peptide binding; higher % means a stronger effect; test concentration not given here; strong numbers were not always called active; inhibition, %; hits with a dose series show IC50 in µM; 260,000 compounds, 0.57% hits;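 active means above the screen mean plus three standard deviations and confirmed in dose response; inconclusive means results disagree or hit not tested in dose response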;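 further: Vif residues 1-94 fused to GST binding biotinylated APOBEC3G peptide 110-148; 0% = full assay without inhibitor and 100% = GST in place of GST-Vif; retest series ran down from 100 µM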
AF4-AF9 inh: inhibitors of AF4 peptide binding to AF9, primary screen, biochemical, AlphaScreen, biotin-AF4 peptide, FLAG-AF9, single point | inhibition, % at 10 µM | 350,000 compounds, 0.47% hits | AID 651704, 2012;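 active means every replicate reaching a set inhibition limit, whatever the replicate mean, cut at about 25% in these data; inconclusive means mean inhibition reaches that limit but some replicates miss it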;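 further: 0% = plate neutral control median and 100% = total signal loss; the record names both 10 and 1 µM as test concentration; the first replicate is given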
Target sequence (P42568 whole entry, looked up): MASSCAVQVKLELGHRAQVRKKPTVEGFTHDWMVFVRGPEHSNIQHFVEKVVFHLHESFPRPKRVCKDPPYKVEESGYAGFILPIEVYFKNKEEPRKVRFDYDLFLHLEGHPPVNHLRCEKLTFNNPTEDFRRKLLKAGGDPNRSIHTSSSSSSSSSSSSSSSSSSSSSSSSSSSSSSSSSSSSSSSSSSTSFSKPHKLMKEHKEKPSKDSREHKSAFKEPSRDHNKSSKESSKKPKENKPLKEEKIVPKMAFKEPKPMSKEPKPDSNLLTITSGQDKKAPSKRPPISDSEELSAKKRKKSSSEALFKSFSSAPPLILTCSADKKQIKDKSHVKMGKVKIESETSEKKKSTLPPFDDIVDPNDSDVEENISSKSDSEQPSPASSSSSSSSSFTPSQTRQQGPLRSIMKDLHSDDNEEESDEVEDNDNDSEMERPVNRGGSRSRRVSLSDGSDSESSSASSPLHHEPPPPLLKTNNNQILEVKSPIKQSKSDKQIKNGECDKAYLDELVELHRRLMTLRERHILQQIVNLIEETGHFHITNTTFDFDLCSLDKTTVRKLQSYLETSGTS
T cruzi repl: inhibitors of intracellular T. cruzi growth, primary screen, luminescence, NIH3T3 host cells. inhibition, % (no concentration beside the values). 300,000 compounds, 1.4% hits. T. cruzi beta-gal in NIH3T3, 90 h;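 active means mean inhibition across valid replicates above about 55%, limit read from the data; inconclusive means mean below that limit but half or more replicates reach it; inactive means mean below it, under half of replicates reach it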;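 further: signal also drops with host cell toxicity which is not excluded here; 0% = plate median of DMSO wells and 100% = zero luminescence signal; higher percent means less beta-gal luminescence so fewer parasites; stock transfer was 50 nL into about 50 µL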
Ecoli rRNA inh OD600: recorded beside Ecoli rRNA inh, whose call it bears; OD600 change, %; measured here: OD600 growth;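 optical density of the mix in the first replicate; 0 = DMSO median and -100 = no signal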
Ecoli rRNA inh RFP: second read-out of Ecoli rRNA inh, no call of its own (marks repeat the call); RFP signal change, %; measured here: RFP humanized mutant strains;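 first replicate; 0 = DMSO median and -100 = no signal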
* = called active by the depositor; ? = inconclusive; · = no result given. These rows are one share of the data; the hit share may differ from the screen's.

SMILES | Calb FLC | Ecoli rRNA inh | Ecoli rRNA inh OD600 | Ecoli rRNA inh RFP | Bfl-1 A1 inh | Beta cell apopt | RanGTP-Impb inh | Vif A3G | AF4-AF9 inh | T cruzi repl
O=C(Nc1ccc(Cl)c(NC(=O)c2cccs2)c1)c1ccco1 | -16 | -21 | -21 | 5.9 | 0.1 | 1 | -0.6 | · | -1.1 | -9
COc1ccc(Cl)cc1-c1nc(SCC(=O)NC(C)(C)C)n[nH]1 | 18 | -15 | -23 | -0.7 | 0.1 | -2 | -1.6 | 14% | -1.9 | 3
C[C@H](NC(=O)c1ccccc1Cl)C(=O)OCC(=O)N1CC2(C)CC1CC(C)(C)C2 (stereo partly specified) | -3 | 14 | 17 | 0.3 | -1.0 | -12 | 0.1 | 0% | -1.9 | -8
C#CCNC(=O)C1=C[C@H](c2csc3ccccc23)C[C@H](OCc2ccc(CO)cc2)O1 | -19 | -1 | -4 | -1.6 | 0.1 | -3 | ? | 20% | -3.6 | 25
O=C(c1ccccc1)c1ccc(OCC(O)CN2CCN(S(=O)(=O)N3CCCCC3)CC2)cc1 (stereo unspecified) | 29 | · | · | · | · | · | -0.3 | 5% | · | 12
CCCOC(=O)c1c(NC(=O)c2cnn3c2NC(c2ccccc2)CC3C(F)(F)F)sc2c1CCCC2 (stereo unspecified) | -27 | 3 | 0 | -4.6 | 0.0 | 6 | 2.4 | · | 3.8 | -12
COc1cc(/C=C2\SC(=S)N(NC(=O)c3ccccc3O)C2=O)ccc1O | 12 | -41 | -56 | -21 | -1.1 | 3 | -13 | 5% | 1.8 | -9
COc1ccc(NC(=O)CSc2nnc(NC(=O)CN3CCOCC3)s2)cc1 | 29 | 4 | 5 | 0.8 | 0.4 | -6 | -2.1 | 1% | -1.4 | 1
CC(=O)NCCc1c(C)n(Cc2ccccc2)c2ccccc12 | -12 | -20 | -21 | -3.5 | 0.3 | 3 | 1.9 | 5% | 0.2 | -8
CCCCNC(=O)Nc1ccc2c(c1)N(C)C(=O)c1ccccc1S2 | 4 | 16 | 14 | 0.7 | -0.2 | -3 | 3.4 | -6% | -0.6 | -26
CCCCCn1c(=O)[nH]c2cc(C(=O)NCCCN3CCCCC3C)ccc2c1=O (stereo unspecified) | 0 | 0 | -9 | -2.0 | 0.4 | -10 | -2.2 | -4% | 2.6 | -12
O=C(Cn1c(=O)oc2cc(S(=O)(=O)NCc3ccccc3)ccc21)N1CCCC1 | -2 | -22 | -35 | -15 | -0.4 | 5 | 5.8 | 4% | 29* | 0
CC1CCCCN1C(=O)CSc1nnc(CSc2ncccn2)n1C (stereo unspecified) | 1 | · | · | · | 0.4 | 0 | 0.5 | 0% | · | -1
CCOC(=O)c1sc2ncn(C(C)C(=O)OC)c(=O)c2c1C (stereo unspecified) | -9 | · | · | · | 0.0 | 0 | 1.4 | -10% | · | -3
Cc1ccc(C)c(NC(=O)CN(C)C(=O)C2COc3ccccc3O2)c1 (stereo unspecified) | · | · | · | · | 2.0 | -1 | · | -2% | -3.4 | ·
O=C(CSc1nc(O)cc(=O)n1-c1ccccc1)Nc1ccc(Br)cn1 | -4 | 4 | 13 | 6.4 | -0.6 | -5 | -0.1 | · | -0.5 | -8
CCSc1nc2sc3c(c2c(=O)n1-c1ccccc1C)CCN(C)C3 | 9 | -7 | -12 | 2.2 | -0.2 | -5 | -13 | -1% | -2.5 | 27
C=C1C2(C(=O)Nc3nccs3)CCC(C2)C1(C)C (stereo unspecified) | -13 | · | · | · | -0.2 | 3 | -0.8 | 4% | · | -16
C/C(=N/NC(=O)C1CCCCC1)c1ccc([N+](=O)[O-])cc1 | -3 | · | · | · | 0.1 | -8 | 1.8 | -1% | · | 9
CCC(C)NC(=O)c1ccccc1NC(=O)c1ccc(CSc2ccc(C)cc2)cc1 (stereo unspecified) | ? | · | · | · | -0.2 | 4 | -0.7 | 5% | -56 | 42
O=C(NCc1ccccc1Cl)C1CCCO1 (stereo unspecified) | -9 | 20 | 14 | 1.4 | 0.3 | -2 | ? | 12% | -1.8 | -8
O=c1[nH]c(SCc2ccccc2Cl)nc2c1CCCC2 | 48 | · | · | · | 0.1 | 2 | 4.1 | 0% | · | 3
O=c1ccn(-c2cccc(C(F)(F)F)c2)nc1-c1ccn(-c2ccccc2F)n1 | -10 | · | · | · | 0.4 | 5 | 1.2 | 6% | · | 5
CCN(CC)C(=O)Cn1cnc2c1c(=O)n(C)c(=O)n2C | -1 | · | · | · | 1.7 | -2 | -0.1 | 23% | · | -5
Cc1ccc(C)c(NC(=O)NNC(=O)CCc2ccccc2)c1 | -1 | 12 | 6 | -0.1 | 0.3 | -9 | 1.1 | · | -0.5 | 1
Cc1ccc(S(=O)(=O)N2CCOCC2)cc1NC(=O)CNCc1cccnc1 | 1 | 12 | 3 | -4.5 | 0.7 | 0 | 2.2 | 0% | -12 | -8
COc1ccc(C(=O)N/N=C/c2cc3ccccc3[nH]c2=S)cc1 | -3 | · | · | · | 1.7 | 5 | 6.6 | 2% | · | -2
O=C(CC1C(=O)NCCN1C(=O)Nc1ccccc1)Nc1cc(Cl)ccc1Cl (stereo unspecified) | 0 | -25* | -12* | 2.5* | 0.4 | -1 | ? | · | 6.0 | 9

5 of the compounds above, with values under each structure:
Results follow in this order: Calb FLC, Ecoli rRNA inh, Ecoli rRNA inh OD600, Ecoli rRNA inh RFP, Bfl-1 A1 inh, Beta cell apopt, RanGTP-Impb inh, Vif A3G, AF4-AF9 inh, T cruzi repl
- CCSc1nc2sc3c(c2c(=O)n1-c1ccccc1C)CCN(C)C3
    9, -7, -12, 2.2, -0.2, -5, -13, -1%, -2.5, 27
- C=C1C2(C(=O)Nc3nccs3)CCC(C2)C1(C)C (stereo unspecified)
    -13, ·, ·, ·, -0.2, 3, -0.8, 4%, ·, -16
- C/C(=N/NC(=O)C1CCCCC1)c1ccc([N+](=O)[O-])cc1
    -3, ·, ·, ·, 0.1, -8, 1.8, -1%, ·, 9
- CCC(C)NC(=O)c1ccccc1NC(=O)c1ccc(CSc2ccc(C)cc2)cc1 (stereo unspecified)
    ?, ·, ·, ·, -0.2, 4, -0.7, 5%, -56, 42
- O=C(NCc1ccccc1Cl)C1CCCO1 (stereo unspecified)
    -9, 20, 14, 1.4, 0.3, -2, ?, 12%, -1.8, -8

Taken from above.
O=C(CSc1nc(O)cc(=O)n1-c1ccccc1)Nc1ccc(Br)cn1 – Beta cell apopt = -5
O=C(CC1C(=O)NCCN1C(=O)Nc1ccccc1)Nc1cc(Cl)ccc1Cl (stereo unspecified) – Calb FLC = 0
CCN(CC)C(=O)Cn1cnc2c1c(=O)n(C)c(=O)n2C – Beta cell apopt = -2
